BJeLR viability: BJeLR cell viability loss; BJeLR (HRASV12) viability, CellTiter-Glo ATP luminescence, 48 h; reference of the scale not given here; inhibition, % (concentration not given with the values); hit rate 0.17% among 300,000;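 active means replicate mean above 50%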;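 further: 50 nL library stock added to about 25 µL; numbers are from one replicate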
PrP 5UTR inh: inhibition of PrP 5' UTR reporter expression | inhibition, % (test concentration not listed) | hit rate 0.35% among 340,000 | AID 488862 | cell-based PrP 5' UTR mRNA reporter, plate reader;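 active means every replicate at 50% or more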;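 further: 0 = median of the neutral control wells; tested in H4 reporter cells; numbers are from one replicate; inactives centre near -14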
Autofluor counter: compound fluorescence in toxin protease inhibitor counterscreen; compound autofluorescence counterscreen, microsphere flow cytometry; stronger effect = higher value; hit rate 3.1% among 360,000; fluorescence intensity (concentration not given with the values);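 active means at least 3 SD above the mean of all compounds, about 16000 in these data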;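 further: 100 nL of 1 mM stock went into each well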
Sa RN4220 lethal: S. aureus RN4220 growth inhibition. OD600, 16 h. inhibition, % (no concentration beside the values). hit rate 0.33% among 330,000. AID 1259311;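 active means z-score of -3 or lower and OD600 up to 0.18 on both plates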;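 further: plate controls were untreated cells for no effect and reference antibiotic for full effect; stock transfer was 100 nL into about 80 µL; one replicate is shown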
Sa ugtP lethal: compounds lethal to S. aureus RN4220 ugtP deletion mutant. AID 1259309. hit rate 0.54% among 330,000. OD600 growth, 16 h; some inactives read as strong as hits. growth inhibition, % (no concentration beside the values);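 active means z-score under -3 and OD600 up to 0.15 on both plates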;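 further: plate controls were untreated wells for no effect and antibiotic for full effect; wells of about 80 µL received 100 nL stock; the first replicate is given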
Mtb hypoxia inh: inhibitors of hypoxia-regulated fluorescent reporter in Mycobacterium tuberculosis | M. tuberculosis hypoxia-regulated fluorescent reporter, fluorescence | fluorescence inhibition, % (no concentration beside the values) | hit rate 0.1% among 300,000 | AID 1159583;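 active means 35 to 45% if threefold the growth effect, above 45% if 1.5-fold the growth effect; inactive means the rest, general growth blockers included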;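 further: wells of about 50 µL received 100 nL stock; 0% = vehicle wells and 100% = reference inhibitor wells; whole bacteria with a GFP reporter of the hypoxia response; strong numbers were not always called active; many hits fall short of the cut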
Mtb hypoxia inh growth: also measured in Mtb hypoxia inh; calls as there; growth inhibition, %; measured here: M. tuberculosis growth (absorbance);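 0% = vehicle and 100% = reference antibiotic; read after six days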
Numbers without * were called inactive; / = not tested or not shown. Not a hit list; any-hit rate near 3.9%.

item	Structure	BJeLR viability	Mtb hypoxia inh	PrP 5UTR inh	Autofluor counter	Mtb hypoxia inh growth	Sa RN4220 lethal	Sa ugtP lethal
1	COc1ccc(/C=N/n2c(C)nc3ccccc3c2=O)cc1OC	-7	/	-8	3157	/	/	/
2	CC(C)c1ccc(NC(=O)N2CCN(S(=O)(=O)c3ccccc3)CC2)cc1	4	1	-25	4278	0	2.7	-5
3	Cc1cc(C)cc(OCC(=O)NN=Cc2ccco2)c1	/	4	/	/	0	2.9	2
4	O=C(Cc1ccc(Cl)cc1)Nc1ncccn1	2	6	-27	4630	-3	6.6	8
5	Cc1cc(N/C=C/C(=O)c2ccc(Br)cc2)no1	23	9	-95	8872	2	6.9	13
6	COc1ccc(N2CCN(Cc3nc4ccsc4c(=O)[nH]3)CC2)cc1	/	1	-40	20654*	5	0.7	5
7	COc1cccc(C(=O)NC(=S)Nc2ccc(N(C)C)cc2)c1	4	23	-49	2356	1	4.5	0
8	Cc1n[nH]c(C)c1CS(=O)(=O)c1ccccc1	-10	6	-39	4178	1	6.7	12

Full records from above. Order of screens: BJeLR viability | Mtb hypoxia inh | PrP 5UTR inh | Autofluor counter | Mtb hypoxia inh growth | Sa RN4220 lethal | Sa ugtP lethal
Cc1n[nH]c(C)c1CS(=O)(=O)c1ccccc1 as listed: -10 | 6 | -39 | 4178 | 1 | 6.7 | 12
COc1ccc(/C=N/n2c(C)nc3ccccc3c2=O)cc1OC as listed: -7 | / | -8 | 3157 | / | / | /

New compounds follow
item	Structure	BJeLR viability	Mtb hypoxia inh	PrP 5UTR inh	Autofluor counter	Mtb hypoxia inh growth	Sa RN4220 lethal	Sa ugtP lethal
9	CCSc1nnc(NC(=O)c2ccc(F)c(S(=O)(=O)N3CCOCC3)c2)s1	/	20	-5	4229	27	8.7	3
10	COc1cc(/C(C)=N/N2CCOCC2)cc(OC)c1OC	-7	/	-8	4524	/	/	/
11	CC(C)(CNC(=O)c1cccc(S(=O)(=O)Nc2ccc(SC(F)F)cc2)c1)N1CCOCC1	/	2	-3	3379	8	6.5	2
12	COC(=O)CSc1nnc(CNc2ccc(F)cc2)o1	-10	9	-9	8844	9	3.9	0
13	O=C(NCc1cccs1)C1CCCN(S(=O)(=O)c2ccc3c(c2)OCO3)C1 (stereo not drawn)	-1	/	2	3917	/	-1.8	2
14	CC1CN(C(=S)Nc2ccccc2)N(c2ccccc2)C1 (stereo not drawn)	-1	8	-31	2457	-2	0.2	9
15	Cc1ccc(N2C(S)=C(C#N)C(=O)NC23CCCCC3)cc1	-21	-1	-14	2467	3	1.1	10
16	O=C(COC(=O)c1ccc(O)cc1)Nc1cc(C(F)(F)F)ccc1N1CCOCC1	/	-11	-2	3835	-9	-2.4	1
17	COc1ccc(C2CC2/C(=N/OC(=O)c2cccs2)c2ccccc2)cc1 (stereo not drawn)	1	/	-42	2695	/	/	/
18	Cc1ccc(N2C(=O)N(CC(=O)Nc3ccc(C)c(C)c3[N+](=O)[O-])C(=O)C2C)cc1 (stereo not drawn)	2	14	23	4357	5	2.0	2
19	O=C1CN=C(c2ccccc2)c2cc([N+](=O)[O-])ccc2N1	/	/	1	6684	/	4.2	9
20	Cc1csc(NC(=O)CSc2nnc(C)s2)n1	-5	6	-23	2632	4	-11	-7
21	COc1cccc(CNS(=O)(=O)c2cc3c(cc2Cl)NC(=O)CO3)c1	16	9	-16	5578	6	-10.0	0
22	O=C(O)C1CCCCC1C(=O)Nc1ccc(OCc2ccccc2)cc1 (stereo not drawn)	1	1	-35	3839	3	4.3	0
23	COc1ccc(C(=O)COc2ccccc2N2C(=O)C3C4C=CC(C4)C3C2=O)cc1 (stereo not drawn)	3	/	-28	2919	/	-2.9	2
24	CC(C)CN(C(=O)CN1C(=O)C2CCCCC2C1=O)c1c(N)n(Cc2ccccc2)c(=O)[nH]c1=O (stereo not drawn)	-3	9	-25	5258	5	0.0	4
25	Cc1nc(C)c(C(=O)OCC(=O)N(C)c2ccccc2)s1	/	2	-13	4739	-8	3.9	10
26	COc1ccc(-c2cc(C(=O)NCC3CCCO3)on2)cc1OC (stereo not drawn)	4	6	-1	5121	5	2.6	3
27	COc1ccc(N=Cc2nc(-c3ccccc3)oc2OC(=O)c2ccccc2)cc1	8	-4	-55	2336	-5	7.1	-6
28	Cc1[nH]n(-c2cccc3ccccc23)c(=O)c1/C=N/c1sc2c(c1C#N)CCC2	3	/	-24	3487	/	/	/
29	O=S1(=O)c2ccc(Br)cc2N2CCC[C@@H]2CN1Cc1ccccc1	/	5	-23	2964	6	8.2	-1
30	O=C(C1CCCC1)N1CCN(S(=O)(=O)c2ccc(F)cc2)CC1	2	5	-3	2932	4	0.4	2
31	CCCCn1c(N)c(N(CC)C(=O)c2ccc(C)cc2)c(=O)[nH]c1=O	-18	-8	-9	3018	-5	2.1	13
32	COc1ccc(C(=O)Nc2ccc(Cl)cc2F)cc1S(=O)(=O)N1CCCC1	/	25	-15	3988	12	-1.4	7
33	Cc1cc(C)c(COc2ccc(/C=N/n3c(C)n[nH]c3=S)cc2)c(C)c1	-6	/	-12	2009	/	/	/
34	O=C(CSCc1ccccn1)Nc1ccccc1	-1	/	-14	2399	/	6.5	-1
35	S=C(NCCCN1CCOCC1)Nc1cccc(Cl)c1	14	12	-9	3097	1	2.2	0
36	O=C1NC(=Nc2cccnc2)S/C1=C/c1ccc(F)cc1	2	10	/	5871	-16	3.4	-6
37	O=C(Nc1ccc2ccccc2c1)c1cccnc1	7	/	-69	4278	/	-2.1	-3
38	Nc1nnc(CSCc2cccc(Br)c2)s1	5	7	2	3322	0	4.6	5
39	COC(=O)c1cc(OC)c(OC)cc1NC(=O)C(C)Sc1ccc(C)cc1 (stereo not drawn)	-8	9	-33	6061	6	5.2	2
40	O=C(NNC(=S)NC(=O)C12CC3CC(CC(C3)C1)C2)c1ccncc1	7	-3	-7	10291	12	48	26
41	CCCCN(CCCC)CCCNC(=O)CN1C(=O)COc2ccc(S(=O)(=O)N3CCC(C)CC3)cc21	0	8	-10	4409	2	-1.3	7
42	COc1ccc(N2C(=O)CC(N3CCC(n4c(=O)[nH]c5ccccc54)CC3)C2=O)cc1 (stereo not drawn)	-3	3	-29	9952	8	2.9	7
43	CCCc1cc(=O)oc2cc(OCC(=O)N3C[C@H]4C[C@@H](C3)c3cccc(=O)n3C4)c(Cl)cc12	-4	/	-4	5119	/	1.7	-5
44	CC(=O)Nc1cccc(NS(=O)(=O)c2cc3c4c(c2)CCN4C(=O)CC3)c1	10	2	-16	5505	-1	6.1	3
45	COc1ccc2cnnc(SCC(=O)Nc3ccc(C(C)=O)cc3)c2c1OC	-4	0	-13	10332	2	1.5	14
46	CCOC(=O)C1CCCN(C(=O)c2sc3nc(C)nc(N(CC)CC)c3c2C)C1 (stereo not drawn)	-3	5	-2	10543	12	-5.0	0
47	CC(CN1C(C)CCCC1C)OC(=O)c1cccc(Br)c1 (stereo not drawn)	0	-3	-16	3923	-10	0.4	0
48	CC1CCN(S(=O)(=O)c2ccc(S(=O)(=O)N3CCC4(CC3)OCCO4)cc2)CC1	13	-4	-13	2431	0	7.6	8
49	O=C(Cn1nc(-c2ccccc2)c2ccccc2c1=O)NN1CCOCC1	-3	-4	-13	3247	10	-3.6	-2
50	CN(c1ccccc1)S(=O)(=O)c1cc(C(=O)NCCCn2ccnc2)ccc1Cl	/	10	-21	3813	2	7.3	6
51	Cc1ccc(CNC(=O)CCNC(=O)Cn2ccc3ccccc3c2=O)o1	2	13	-18	8777	4	4.6	-8
52	CCOC(=O)Cn1nc(Cc2ccccc2)c2ccccc2c1=O	-1	-10	-7	4811	3	-1.2	1
53	Nc1nc2c(s1)C(=O)CC(c1ccccc1)C2 (stereo not drawn)	-17	2	-19	3220	11	8.4	0
54	Cc1nnc(Sc2c(N)n(C)c(=O)[nH]c2=O)s1	-5	0	-20	11044	16	-3.9	-10
55	CC1CCN(C(=O)CSc2nc(C3CC3)nc3ccccc23)CC1	1	16	-29	3781	8	1.9	-4
56	CC(C)(C)Nc1nc(Cl)nc(NC2CCCCC2)n1	9	-10	-6	3989	-1	-6.9	-11
57	COc1cc(/C=C/C(=O)NCc2nc3ccccc3[nH]2)cc(OC)c1OC	10	-6	-13	3996	2	-0.2	11
58	Cc1cc(/C=N/NC(=O)c2ccncc2)c(C)n1-c1ccccc1	3	/	-24	1993	/	/	/
59	COc1ccc(CC(=O)N2N=C(C)CC2(O)C(F)(F)F)cc1 (stereo not drawn)	-7	-3	-4	2467	2	4.5	-2
60	COc1ccc(CCNC(=O)C2CCN(C(=O)c3ccc(OC)c(OC)c3)CC2)cc1	-14	-3	8	2845	-2	-4.7	-4
61	O=C(NCc1ccccc1)c1cc2ccccc2o1	-7	/	-16	3250	/	-7.0	-8
62	CC(=O)c1c(C)n(C2CCCCC2)c2ccc(O)cc12	2	2	38	4905	7	6.7	0
63	OCC#CCSc1nnc(-c2ccc(Br)cc2)o1	-6	/	-13	3822	/	6.8	5
64	O=C(Nc1ccc(Cl)cc1C(F)(F)F)C(Sc1cccc[n+]1[O-])c1ccccc1 (stereo not drawn)	4	-2	-8	4471	-4	2.1	1

(list continues)
item	Structure	BJeLR viability	Mtb hypoxia inh	PrP 5UTR inh	Autofluor counter	Mtb hypoxia inh growth	Sa RN4220 lethal	Sa ugtP lethal
65	O=C(COC(=O)c1cc(S(=O)(=O)N2CCOCC2)ccc1Cl)NCc1ccc2c(c1)OCO2	/	0	0	5845	1	0.6	1
66	CC[C@]12CC[C@H](O)CC1=CCC1C2CC[C@]2(C)C(=O)CCC12 (stereo partly drawn)	/	-15	/	3823	-8	3.1	0
67	O=C(O)CSc1cc(NS(=O)(=O)c2ccc(Br)cc2)c2ccccc2c1O	5	/	-24	4295	/	/	/
68	COc1ccc(-c2noc(=O)n2Cc2ccc(F)cc2Cl)cc1	9	21	1	3428	11	7.2	10
69	COc1cccc(OCC(=O)NNC(=O)c2ccc3ccccc3c2)c1	-7	12	-21	5865	4	0.6	-6
70	C=CCn1c(O)c(N=NC(=O)OCC)c2ccccc21	9	10	-5	2470	10	6.5	-2
71	Cn1c(=O)c(=O)n(C)c2cc(S(=O)(=O)NCc3ccc(Cl)cc3)ccc21	0	8	-17	4484	4	7.4	3
72	COc1ccccc1NC(=O)Cc1noc(CSc2nnc(N)s2)n1	7	/	-14	2200	/	3.1	-9
73	CCCc1ccc2oc(C(=O)N(C)Cc3ccn[nH]3)c(C)c2c1	-4	-4	-59	6211	2	11	8
74	CCOc1cc(C=NNC(=O)c2ccc(O)cc2)ccc1Oc1nc(Cl)ncc1F	/	1	/	/	1	-1.3	-1
75	Nc1cc(Cl)nc(N/N=C/c2ccc([N+](=O)[O-])cc2)n1	3	/	-25	1928	/	/	/
76	O=C(CN1CCCC1)Nc1c2c(nc3ccccc13)N(Cc1ccccc1)CC2	8	-3	-7	10972	-4	-2.5	-5
77	CCOc1cccc(-c2c(C(=O)NN=C(C)c3cccnc3)nnn2-c2nonc2N)c1	/	16	/	/	7	4.7	2
78	NC(=O)NC(Cc1ccccc1)C(=O)NNC(=O)COc1ccccc1Cl (stereo not drawn)	/	7	-16	3612	8	4.5	11

From PubChem BioAssay
